Bioassay records from PubChem BioAssay.
Menin MLL FP FL: inhibitors of human menin-MLL interaction, wild-type MLL peptide; 290,000 tested, under 10 active; AID 1766; Fluorescence polarization, fluorescein-MLL peptide displacement from menin; FP activity change, % at 61.4 µM; inconclusive = falling polarisation curve, or a change in total fluorescence; inactive = total fluorescence flat and polarisation flat or rising; no compound was filed as active; the % refers to the polarisation; negative = inhibition;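 further: % of control where 0% means no effect; inhibitors lower the polarisation; unlabelled MLL peptide was the positive control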
TRPML1 blocker: inhibitors of human TRPML1 channel | hit rate 0.02% among 390,000 | TRPML1-inducible cells, Ca2+ dye fluorescence, FDSS; hits give low values; inhibition of EC80 agonist-evoked calcium signal | Q9GZU1 | activity change, negative = inhibition, % (concentration not given with the values); in the data active means activity change below about -50%; inconclusive means about -30% to -50%; inactive means above about -30%;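 further: stimulus is agonist 54-4 at its EC80 concentration; on the % scale 0 is the no-effect control and ±100 the full control effect; compound concentration not given in the record; the text of the record puts the active cut at -80%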
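Tet-induced TRPML1-DL cells loaded with Ca8 no-wash calcium dye were read kinetically on FDSS. Compound addition was followed by EC80 agonist 54-4 (4 uM final); inhibition was read over 110 s.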
Sfp inh: inhibitors of Bacillus subtilis Sfp phosphopantetheinyl transferase; Biochemical Sfp PPTase activity, qHTS; Potency, µM, inactives show max response, negative = inhibition, actives largely listed as inhibitors; AID 1490; hit rate 3.5% among 310,000; active means well fitted inhibition curve with a large enough effect; inconclusive means small, poorly fitted or top-dose-only effect, or another doubt; inactive means no such curve, though single readings can be large or run the other way;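 further: the enzyme is Sfp with the accession as filed and its product quenches rhodamine fluorescence; potency means the concentration at half of the fitted maximal effect; 0% = enzyme reaction without inhibitor and -100% = no enzyme wells; top concentration of the series not given in the record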
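Reaction rates are the 30-min fluorescence difference (ex 525, em 598 nm) in wells containing 15 nM Sfp, 5 uM rhodamine-CoA and 12.5 uM BHQ-2-YbbR at pH 7.6 with 10 mM MgCl2.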
PINK1 modulator: PINK1 expression modulation; Potency, µM (doses to about 76.6 µM), inactives show at the top dose activation (PINK1 increase), actives largely listed as activators; PINK1 immunofluorescence, high-content cytometry, 24 h; hit rate 0.2% among 410,000; AID 624263; active = well fitted activation curve with a large enough effect; inconclusive = small, poorly fitted or top-dose-only effect; inactive = flat fitted curve, though single readings scatter; cell line not stated here;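 further: potency means the concentration at half of the fitted maximal effect; % of control where 0% means no effect; nearly all actives have a fitted effect of over 65% in size; a mitochondrial uncoupler was the plate control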
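PINK1 protein, normally rapidly degraded, was detected by immunofluorescence after 24 hour compound treatment of a stable cell line. Titration data (5 concentrations) came from laser-scanning cytometry, with CCCP-treated wells as controls.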
TRPV1 PAM: human TRPV1 potentiation | hit rate 0.02% among 320,000 | AID 540277 | potentiation, % at 8.33 µM | TRPV1-expressing cells, Fluo-8 calcium influx, capsaicin EC20 potentiation; host cell line not named in the record; control for the full effect not named in the record; active means potentiation above 80%; inconclusive means 30% to 80%; inactive means below 30%; further: 0% is about no effect
Target sequence (Q8NER1 whole entry, looked up): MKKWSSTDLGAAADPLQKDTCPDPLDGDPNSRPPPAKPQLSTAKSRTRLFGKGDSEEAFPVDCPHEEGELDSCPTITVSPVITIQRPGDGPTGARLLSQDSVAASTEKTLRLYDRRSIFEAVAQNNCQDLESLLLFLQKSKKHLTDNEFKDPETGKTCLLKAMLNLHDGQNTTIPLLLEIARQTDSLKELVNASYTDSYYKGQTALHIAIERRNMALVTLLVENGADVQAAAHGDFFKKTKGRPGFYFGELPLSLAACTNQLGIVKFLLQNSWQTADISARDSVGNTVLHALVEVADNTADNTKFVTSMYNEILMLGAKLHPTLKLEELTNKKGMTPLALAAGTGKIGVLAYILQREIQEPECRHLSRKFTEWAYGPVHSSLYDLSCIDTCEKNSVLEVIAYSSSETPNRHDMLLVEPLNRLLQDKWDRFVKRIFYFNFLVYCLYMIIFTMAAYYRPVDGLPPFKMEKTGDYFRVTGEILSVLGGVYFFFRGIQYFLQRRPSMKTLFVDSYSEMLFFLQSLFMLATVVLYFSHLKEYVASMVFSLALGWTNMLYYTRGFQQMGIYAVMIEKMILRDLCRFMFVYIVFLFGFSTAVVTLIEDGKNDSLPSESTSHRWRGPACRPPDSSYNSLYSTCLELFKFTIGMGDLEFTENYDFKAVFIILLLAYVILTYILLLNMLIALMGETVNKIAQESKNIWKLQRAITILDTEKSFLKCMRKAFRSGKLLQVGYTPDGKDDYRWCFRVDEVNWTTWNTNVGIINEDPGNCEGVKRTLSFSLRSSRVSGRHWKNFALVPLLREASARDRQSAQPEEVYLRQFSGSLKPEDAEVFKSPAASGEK
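Cells expressing TRPV1 were dye-loaded with Fluo-8 and read kinetically: 10 s baseline, 3 min after compound (agonist portion), then 2 min after EC20 capsaicin (allosteric enhancer portion). Calcium-bound dye fluorescence at 480/520 nm.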
TRPML1 ag: activates the human TRPML1 channel; Q9GZU1; TRPML1-expressing cells, Ca2+ dye fluorescence, FDSS; host cell line not named in the record; reference of the full effect not given here; activation, % (concentration not given with the values); hit rate 0.12% among 410,000; in the data active = activation above about 50%; inconclusive = about 30% to 50%; inactive = below about 30%; further: 0% is about no effect; the text of the record puts the active cut at 80%
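Tet-induced TRPML1-DL cells, 1,500 per well, cultured overnight, were loaded with a no-wash Ca2+ dye for 45–90 min. Calcium fluorescence was recorded on the FDSS for 110 s after compound addition, before the EC80 agonist (4 uM 54-4) was added.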
ClpP mod: qHTS Assay for Activators of ClpP; ATP-dependent Clp protease proteolytic subunit (Bacillus subtilis (strain 168)), P80244; purified B. subtilis ClpP, FRET peptide cleavage, 20 min; hit rate 1.9% among 340,000; Potency, µM (doses to about 57.5 µM), without a hit: top-dose activity change, negative = active; AID 651965, 2013; active = well fitted falling curve with a large enough effect; inconclusive = small, poorly fitted or top-dose-only effect; inactive = no such curve, though single readings can be large or run the other way; further: potency means the concentration at half of the fitted maximal effect; the source files actives as falling curves though it sought activators and does not explain the sign; nearly all actives have a fitted effect of over 65% in size; many hits overshoot -100%
Target sequence (P80244 whole entry, looked up): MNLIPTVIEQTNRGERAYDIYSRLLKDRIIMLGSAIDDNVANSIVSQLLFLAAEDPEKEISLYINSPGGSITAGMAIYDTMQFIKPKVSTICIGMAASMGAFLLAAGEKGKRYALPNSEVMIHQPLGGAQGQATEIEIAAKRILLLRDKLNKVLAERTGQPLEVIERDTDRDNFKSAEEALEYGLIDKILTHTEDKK
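Purified B. subtilis ClpP, 10 microg/mL final in Tris/HCl pH8 with KCl, BSA, glycerol and Tween-20, cleaved an Abz/nitrotyrosine-quenched decapeptide. Fluorescence (ex 320, em 430) was read at 0 and 20 min at room temperature. Delta was normalized to 5.8 microM ADEP and DMSO/no-enzyme controls.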
Starred values were filed as active, the others as inactive; [ ] = dose if it differs, or a comment.

For O=C(Nc1ccc(N2C(=O)C3CCCCC3C2=O)cc1Cl)c1cccs1 (configuration not stated) the results were Menin MLL FP FL 0.1, TRPML1 blocker -4.4, Sfp inh 25.0%, PINK1 modulator 1.5%, TRPV1 PAM 5.3 and TRPML1 ag 0.1.
Screening CC1=C(C(=O)Nc2cc(Cl)ccc2C)C(c2ccccc2F)n2ncnc2N1 (configuration not stated) returned TRPML1 blocker 2.7, PINK1 modulator -4.5%, TRPML1 ag 0.8 and ClpP mod -1.3%.
For CCCCCN(C(=O)COC(=O)CSc1ccc([N+](=O)[O-])cc1)c1c(N)n(CCCC)c(=O)[nH]c1=O the results were TRPML1 blocker -4.5, PINK1 modulator -3.0%, TRPV1 PAM 1.3 and TRPML1 ag -0.5.
C=C(Cl)COc1ccc2c(CC)cc(=O)oc2c1 was read as Menin MLL FP FL 4.5, TRPML1 blocker -0.6, Sfp inh 6.4%, PINK1 modulator -0.2%[38.3 µM], TRPV1 PAM -18.5, TRPML1 ag 0.4 and ClpP mod 25.1µM*.
For Cc1cc(=O)oc2c(C)c(OCC(=O)NCc3ccccn3)ccc12 the results were TRPML1 blocker -15.0, Sfp inh 7.4%, PINK1 modulator 0.4%, TRPV1 PAM 21.6, TRPML1 ag 0.5 and ClpP mod 3.7%.
For NS(=O)(=O)c1ccc(NC(=O)c2ccccc2C(=O)N2CCCCC2)cc1 the results were Menin MLL FP FL 2.9, TRPML1 blocker -8.9, Sfp inh 10.8%, PINK1 modulator 2.0%, TRPV1 PAM 7.3, TRPML1 ag -0.7 and ClpP mod 1.0%.
For COc1ccc(-c2onc(C)c2-c2cnn(-c3ccccc3)c2)c(O)c1 the results were Menin MLL FP FL -0.6, TRPML1 blocker -0.5, Sfp inh 7.9%, PINK1 modulator 0.1%, TRPV1 PAM -6.7 and TRPML1 ag 1.2.
Screening CCn1c(SCc2ccc(OC)c(F)c2)nc2ccccc2c1=O returned Menin MLL FP FL 0.7, TRPML1 blocker 5.7, Sfp inh -12.5%, PINK1 modulator 6.8%, TRPV1 PAM 0.1 and TRPML1 ag 3.0.
CCCn1c(O)c(N=NC(=O)CNC(=O)/C=C/c2ccc(OC)cc2)c2ccccc21 was read as TRPML1 blocker -9.1, Sfp inh 11.7%, PINK1 modulator 0.7%, TRPV1 PAM 2.2, TRPML1 ag 2.3 and ClpP mod 0.2%.
For O=C(Nc1ccc(Br)cn1)c1cccc(S(=O)(=O)N2CCCC2)c1 the results were TRPML1 blocker 18.1, PINK1 modulator -1.0% and TRPML1 ag -1.2.
For CC1CN(S(=O)(=O)c2cccc(C(=O)OCC(=O)c3cccs3)c2)CC(C)O1 (configuration not stated) the results were Menin MLL FP FL 2.4, TRPML1 blocker 7.0, Sfp inh 1.4%, PINK1 modulator 0.3%, TRPV1 PAM 1.1, TRPML1 ag 1.0 and ClpP mod 0.0%.
Screening CC(C)C(=O)NNC(=O)C1CC1(c1ccccc1)c1ccccc1 (configuration not stated) returned Menin MLL FP FL -2.2, TRPML1 blocker -6.3, Sfp inh 13.3%, PINK1 modulator -1.1%, TRPV1 PAM 4.0, TRPML1 ag -1.1 and ClpP mod 0.0%.
Cc1ccccc1C(=O)OCC(=O)N(C)c1ccccc1 was read as Menin MLL FP FL -17.2, TRPML1 blocker -15.3, Sfp inh 11.2%, PINK1 modulator -0.7%, TRPV1 PAM -9.0 and TRPML1 ag 4.4.
CCOc1cccc(C(=O)Nc2ccc(NC(=O)c3cc4ccccc4o3)c(OC)c2)c1 was read as Menin MLL FP FL 5.4, TRPML1 blocker -6.3, Sfp inh 6.8%, PINK1 modulator 1.7%, TRPV1 PAM -16.3, TRPML1 ag -0.6 and ClpP mod -1.4%.
`CCOc1ccccc1N(C)C(=O)CCS(=O)(=O)c1ccc2c(c1)NC(=O)CO2` gave Menin MLL FP FL -4.0, TRPML1 blocker 25.8, Sfp inh 7.0%, PINK1 modulator 1.7%, TRPV1 PAM 28.6, TRPML1 ag -0.1 and ClpP mod 1.8%.
Cc1ccc2[nH]c(=O)c(CN(Cc3ccccc3)Cc3nnnn3C3CCCC3)cc2c1 was read as Menin MLL FP FL 1.5, TRPML1 blocker -10.1, Sfp inh 39.8µM*, PINK1 modulator 4.3%[38.3 µM], TRPV1 PAM 7.2, TRPML1 ag 2.8 and ClpP mod -9.8%.
`COC(=O)c1ccccc1NC(=O)Nc1cccs1` gave Menin MLL FP FL 5.9, TRPML1 blocker -20.0, Sfp inh 39.8µM*, PINK1 modulator -0.1%, TRPV1 PAM 17.7, TRPML1 ag 0.1 and ClpP mod -17.7%.
Screening CSc1nc2c(c(=O)[nH]c(=O)n2C)n1Cc1ccccc1Cl returned Menin MLL FP FL -2.7, TRPML1 blocker 8.0, Sfp inh 7.7%, PINK1 modulator 8.3%, TRPV1 PAM 5.0, TRPML1 ag 1.1 and ClpP mod -1.3%.
For Cc1c(C(=O)OCc2nnc(-c3ccccc3)o2)oc2ccccc12 the results were TRPML1 blocker -11.0, PINK1 modulator 8.2%, TRPML1 ag -1.1 and ClpP mod -23.4%.
Screening CC(C)c1c(O)nc(SCCN(C)C)[nH]c1=O returned Menin MLL FP FL -0.4, TRPML1 blocker 8.6, Sfp inh -9.7%, PINK1 modulator -3.4%, TRPV1 PAM -6.4, TRPML1 ag -0.4 and ClpP mod 0.2%.
COc1ccc(CCNS(=O)(=O)c2cccc(S(=O)(=O)N3CCCC3)c2)cc1OC was read as Menin MLL FP FL 0.1, TRPML1 blocker -15.4, Sfp inh 1.1%, PINK1 modulator 0.4%, TRPV1 PAM -4.9, TRPML1 ag 0.0 and ClpP mod -0.4%.
O=C(CCCSc1nc2ccccc2[nH]1)NCc1ccc(Cl)cc1 was read as Menin MLL FP FL 3.8, TRPML1 blocker 8.2, Sfp inh 14.8%, PINK1 modulator 2.5%, TRPV1 PAM 4.2, TRPML1 ag 1.0 and ClpP mod -7.7%.
CCN(CC)/C(=N\S(=O)(=O)c1ccccc1C)c1ccccc1 was read as TRPML1 blocker 3.2, Sfp inh 3.3%, PINK1 modulator 2.3%, TRPV1 PAM 7.6, TRPML1 ag -1.1 and ClpP mod -0.7%.
Screening COC(=O)c1cccc(NC(=O)CSc2ncn[nH]2)c1 returned Menin MLL FP FL 1.8, TRPML1 blocker 23.4, Sfp inh 7.9%, PINK1 modulator 0.3%, TRPV1 PAM 6.3, TRPML1 ag 6.4 and ClpP mod 1.7%.
`CN1CCN(CC(O)COc2ccccc2)CC1` (configuration not stated) gave Menin MLL FP FL 2.5, TRPML1 blocker -2.9, Sfp inh 5.4%, PINK1 modulator -2.3%, TRPV1 PAM 9.5, TRPML1 ag 3.9 and ClpP mod -0.3%.
CCCCNC(=O)c1nc(C2CCN(S(=O)(=O)c3ccc(F)c(F)c3)CC2)oc1-c1cccc(C(F)(F)F)c1 was read as PINK1 modulator 4.3%, TRPML1 ag -0.4 and ClpP mod -16.5%.
For O=C1OC(OC(=O)c2ccccc2Br)C(N2CCOCC2)=C1Cl (configuration not stated) the results were Menin MLL FP FL -5.7, TRPML1 blocker -20.0, Sfp inh -24.8%, PINK1 modulator 8.3%, TRPV1 PAM -7.6, TRPML1 ag 0.4 and ClpP mod 0.5%.
For CCOc1cc(C2NC(=O)c3c(sc4c3CCN(C)C4)N2)ccc1OC(=O)c1ccc(F)cc1 (configuration not stated) the results were TRPML1 blocker 10.5, PINK1 modulator 12.4%, TRPML1 ag 4.0 and ClpP mod -19.9%.
Screening Cn1cccc1Cc1nnc(SCC(=O)Nc2ccc3c(c2)OCO3)n1CCc1ccccc1 returned Menin MLL FP FL 1.0, TRPML1 blocker -2.4, Sfp inh 0.1%, PINK1 modulator 0.3%, TRPV1 PAM -15.5, TRPML1 ag 0.1 and ClpP mod 2.8%.
Screening CC(=O)c1ccc(Sc2nnc(C)s2)c([N+](=O)[O-])c1 returned Menin MLL FP FL -0.5, TRPML1 blocker 13.2, Sfp inh 5.8%, PINK1 modulator -1.1%, TRPV1 PAM 0.5, TRPML1 ag 0.6 and ClpP mod 1.1%.
O=[N+]([O-])/C(C(Cl)=C(Cl)Cl)=C(/NC1CC1)Sc1ccccc1 was read as Menin MLL FP FL -2.2, TRPML1 blocker -0.6, Sfp inh -14.3%, PINK1 modulator 2.8%, TRPV1 PAM -23.6 and TRPML1 ag -0.1.
COc1ccccc1NC(=O)C/C(N)=N/O was read as Menin MLL FP FL 0.6, TRPML1 blocker 28.9, Sfp inh 4.2%, PINK1 modulator 1.5%, TRPV1 PAM -0.1, TRPML1 ag -0.7 and ClpP mod 0.1%.
N#Cc1ccsc1NC(=O)COC(=O)c1ccc2ccccc2c1 was read as Menin MLL FP FL 21.9, TRPML1 blocker -6.4, Sfp inh -8.3%, PINK1 modulator 13.4%, TRPV1 PAM 26.1, TRPML1 ag -0.3 and ClpP mod 6.3%.
`C[C@H](CO)N1C[C@H](C)[C@@H](CN(C)CC2CCCCC2)Oc2c(NS(=O)(=O)c3ccccc3)cccc2C1=O` gave TRPML1 blocker -1.7, PINK1 modulator 0.1%, TRPML1 ag -0.7 and ClpP mod -5.4%.
Screening O=C(Cn1nnc(-c2ccccc2Cl)n1)Nc1cccc(S(=O)(=O)N2CCCC2)c1 returned TRPML1 blocker 12.0, PINK1 modulator 0.3% and TRPML1 ag 2.0.
`CCn1c(SCc2cccc(C)c2)nnc1-c1ccc(C)cc1` gave Menin MLL FP FL 0.7, TRPML1 blocker 3.1, Sfp inh 13.2%, PINK1 modulator 1.2%[38.3 µM], TRPV1 PAM 8.3, TRPML1 ag -0.2 and ClpP mod -0.7%.
Screening Cc1ccc(S(=O)(=O)c2cnc(SCC(=O)Nc3cc(C)cc(C)c3)nc2N)cc1 returned TRPML1 blocker 58.2, PINK1 modulator 0.4%, TRPML1 ag 1.9 and ClpP mod inconclusive.
`COC(=O)Nc1ccc(S(=O)(=O)N(CCO)CCO)cc1` gave Menin MLL FP FL 3.7, TRPML1 blocker 1.8, Sfp inh 10.2%, PINK1 modulator 7.1%[38.3 µM], TRPV1 PAM 0.8, TRPML1 ag -0.1 and ClpP mod -1.6%.
Screening CCOc1ccc(N2CCn3c2nc2c3c(=O)n(CCc3ccccc3)c(=O)n2C)cc1 returned Menin MLL FP FL -1.2, Sfp inh 4.7% and TRPV1 PAM 3.1.
